Screens from PubChem BioAssay.
Marburg entry inh: inhibitors of Marburg virus binding or cell entry | Marburg virus pseudotyped entry inhibition, cell reporter; control for the full effect not named in the record; about a third of the inactives were read at about 46 µM | Potency, µM (highest dose often 37.8 µM), for inactives: at the highest dose activity change, negative = inhibition, usual class: inhibitors | actives 1.8% (n = 300,000) | AID 540276; active = well fitted inhibition curve with a large enough effect; inconclusive = small, poorly fitted or top-dose-only effect, or effect the other way; inactive = flat fitted curve, though single readings scatter; tested in HEK293 cells; about a fifth of its hits are not listed in these tables; also: % is scaled to controls: 0 for no effect and ±100 for the full control effect; luciferase read-out
SARS PLpro yeast: inhibitors of SARS-CoV papain-like protease in yeast. S. cerevisiae expressing SARS-CoV PLpro, growth rescue; control for the full effect not named in the record. Potency, µM (doses to about 32.9 µM), without a hit: at the highest dose activity, positive = growth rescue. actives 0.19% (n = 330,000); active means well fitted rising curve with a large enough effect; inconclusive means small, poorly fitted or top-dose-only effect; inactive means no such curve, though single readings can be large or run the other way; also: 0% is about no effect; nearly all actives have a fitted effect of over 55% in size; growth read by luminescence after 48 h
RE007 growth inh: less growth of the S. pombe RE007 Vpr strain | Potency, µM (top dose mostly 92.2 µM), for inactives: top-dose activity change, negative = less growth | AID 651644 | actives 0.21% (n = 360,000) | S. pombe RE007 Vpr strain, BacTiter-Glo ATP luminescence, 24 h; control for the full effect not named in the record; active = well fitted falling curve with a large enough effect; inconclusive = small, poorly fitted or top-dose-only effect; inactive = no such curve, though single readings can be large or run the other way;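 also: % is scaled to controls: 0 for no effect and ±100 for the full control effect; nearly all actives have a fitted effect of over 50% in size; the assay follows cell death caused by Vpr and the record does not say whether a fall means rescue or toxicity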
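Fission yeast strain RE007, carrying one chromosomally integrated HIV-1 vpr copy, was seeded at OD 0.01 in PMG+AL medium with 23 nL pinned compound. After 24 h at 30 °C and 99% humidity, viability was read by BacTiter-Glo luminescence.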
StopGo reporter: lowers the luciferase signal of an FMDV 2A StopGo reporter; human cells with a luciferase reporter of 2A StopGo recoding; control for the full effect not named in the record; Potency, µM (series often up to 57.9 µM), for inactives: at the top dose signal change, negative = less light; actives 1.2% (n = 410,000); AID 1159524; active = well fitted falling curve with a large enough effect; inconclusive = small, poorly fitted or top-dose-only effect; inactive = no such curve, though single readings can be large or run the other way; tested in HEK293T cells; also: % is scaled to controls: 0 for no effect and ±100 for the full control effect; nearly all actives have a fitted effect of over 45% in size; luciferase light after 4 h
Cruzain Triton: cruzain (T. cruzi) inhibition with detergent; P25779; purified cruzain, Z-FR-AMC fluorescence, 0.01% Triton; Potency, µM, for the others: max response, negative = inhibition, hits mostly inhibitors; actives 0.43% (n = 200,000);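 also: plate controls were neutral wells for no effect and buffer without enzyme for full effect; nearly all actives have a fitted effect of over 40% in size; top concentration of the series not given in the record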
Target sequence (P25779 123-467 limits assumed): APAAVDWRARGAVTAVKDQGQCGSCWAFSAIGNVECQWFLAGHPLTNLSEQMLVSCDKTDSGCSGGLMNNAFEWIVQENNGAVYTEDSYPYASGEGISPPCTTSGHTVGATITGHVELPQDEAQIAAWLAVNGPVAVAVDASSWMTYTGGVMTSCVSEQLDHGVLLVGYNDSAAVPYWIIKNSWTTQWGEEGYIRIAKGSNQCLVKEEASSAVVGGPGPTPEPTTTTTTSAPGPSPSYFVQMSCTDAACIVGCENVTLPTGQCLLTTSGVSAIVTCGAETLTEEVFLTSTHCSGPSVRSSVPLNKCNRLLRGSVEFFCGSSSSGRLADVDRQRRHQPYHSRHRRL
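15 min RT preincubation of 1.5 nM cruzain with compound, then 2 uM Z-FR-AMC added; kinetic AMC fluorescence, 60 s delta. Triton X-100 0.01%, pH 5.5.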
NS1 inh: influenza NS1 inhibition; AID 2326; actives 0.4% (n = 270,000); S. cerevisiae slowed by influenza A NS1, growth recovery by OD600; Potency, µM (series often up to 46.1 µM), inactives show at the highest dose activity, positive = more growth; active means well fitted rising curve with a large enough effect; inconclusive means small, poorly fitted or top-dose-only effect; inactive means no such curve, though single readings can be large or run the other way; also: nearly all actives have a fitted effect of over 50% in size
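In this qHTS, NS1 from influenza A is expressed in budding yeast, where it slows growth. Cells are switched from glucose to 2% galactose medium (pH 6.0, -URA), treated with compound, and growth recovery is read at OD600.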
Cruzain inh noDet: inhibitors of Trypanosoma cruzi cruzain without detergent; P25779; purified cruzain, Z-FR-AMC fluorescence, no detergent; Potency, µM, for inactives: max response, negative = inhibition, usual class: inhibitors; actives 2.3% (n = 200,000); AID 1476;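 also: plate controls were enzyme without inhibitor for no effect and buffer without enzyme for full effect; nearly all actives have a fitted effect of over 40% in size; top concentration of the series not given in the record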
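Purified cruzain at 1.5 nM, pre-incubated 15 min with compound at room temperature in 100 mM sodium acetate pH 5.5, 5 mM DTT, 0.00005% Triton X-100. Reaction started with 2 uM Z-FR-AMC; AMC fluorescence increase over 60 s gives rate.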
LASV entry inh: blocks Lassa virus binding to or entry into cells. Lassa virus pseudotype entry inhibition, cell reporter; control for the full effect not named in the record. Potency, µM (series often up to 37.9 µM), inactives show top-dose activity change, negative = inhibition, usual class: inhibitors. actives 1.2% (n = 300,000). AID 540256; active means well fitted inhibition curve with a large enough effect; inconclusive means small, poorly fitted or top-dose-only effect, or effect the other way; inactive means flat fitted curve, though single readings scatter; tested in HEK293 cells; also: % is scaled to controls: 0 for no effect and ±100 for the full control effect; nearly all actives have a fitted effect of over 50% in size; luciferase read-out
Numbers without * were called inactive; ? = inconclusive; . = no result given; & = joins results of further samples; [ ] = another dose, or the depositor's remark. Unless noted, calls follow the shape of the dose curve; as a rule, active = well fitted curve in the direction sought with a large enough effect; inconclusive = small, poorly fitted or top-dose-only effect, or another doubt; inactive = no such curve, though single readings can be large; an effect the other way counts as inactive or inconclusive. Potency is read from the fitted curve at half-maximal effect.

Each structure is followed by: Marburg entry inh	SARS PLpro yeast	RE007 growth inh	StopGo reporter	Cruzain Triton	NS1 inh	Cruzain inh noDet	LASV entry inh
Cc1ccc(NC(=O)/C(=C\c2cccs2)NC(=O)c2ccccc2)cc1
→ -43.6%	1.0%	-4.1%	14.6%	-4.3%	22.0%	-5.5%	11.2%
CCc1noc(C)c1C(=O)N1CCN(S(=O)(=O)c2ccc(C(C)=O)cc2)CC1
→ -4.3%	-0.2%	-9.3%	-4.6%	.	.	.	-13.9%
CN1C(=O)c2cccc3c(S(=O)(=O)Nc4cccc(C(=O)O)c4)ccc1c23
→ 5.5%[46.1 µM]	.	.	7.9%	-6.4%	.	0.3%	8.3%[46.1 µM]
Cc1cnc([N+](=O)[O-])n1CCOC(=O)NC(=O)c1ccccc1
→ 6.9%[46.1 µM]	-2.6%	12.5%	-4.7%	.	.	.	2.6%
O=C(NCc1ccco1)c1nc2c(nnn2Cc2ccccc2Cl)c(=O)[nH]1
→ ?	8.8%	-6.7%	.	-3.7%	10.9%	-25.3%	13µM*
CCOC(=O)CCC(=O)N1CCOCCOCCOCC1
→ 7.2%	-1.1%	-8.2%	.	3.6%	-3.8%	-2.1%	-9.1%
O=C(NCCCN1CCN(c2cccc(Cl)c2)CC1)c1cnn(-c2ccc(F)cc2)c1-n1cccc1
→ .	.	.	?	-2.7%	.	2.1%	10.2%[46.1 µM]
CCOC(=O)C1=C(C)NC(=S)NC1c1ccc(OCC(=O)N2CCCCCC2)c(OC)c1 (centres undefined)
→ 9.1%[46.1 µM]	-1.9%	2.2%	-8.2%	.	1.5%	.	?
COCn1cnc(-c2ccccc2)c1-c1ccccc1
→ -15.0%[46.1 µM]	.	6.8%	-1.1%	.	.	.	-12.8%[46.1 µM]
COc1ccc(C2CC(=O)N(CC(=O)Nc3ccc(C(C)=O)cc3)c3ccccc3S2)cc1OC (centres undefined)
→ ?	.	.	?	-5.5%	.	?	.

2 entries from above, bar-delimited.
molecule | Marburg entry inh | SARS PLpro yeast | RE007 growth inh | StopGo reporter | Cruzain Triton | NS1 inh | Cruzain inh noDet | LASV entry inh
CN1C(=O)c2cccc3c(S(=O)(=O)Nc4cccc(C(=O)O)c4)ccc1c23 | 5.5%[46.1 µM] | . | . | 7.9% | -6.4% | . | 0.3% | 8.3%[46.1 µM]
CCc1noc(C)c1C(=O)N1CCN(S(=O)(=O)c2ccc(C(C)=O)cc2)CC1 | -4.3% | -0.2% | -9.3% | -4.6% | . | . | . | -13.9%

(further entries)
Each structure is followed by: Marburg entry inh	SARS PLpro yeast	RE007 growth inh	StopGo reporter	Cruzain Triton	NS1 inh	Cruzain inh noDet	LASV entry inh
CN(Cc1ccccc1)C(=O)c1[nH]cnc1C(=O)NCC(=O)OCc1ccccc1
→ .	-0.5%	3.0%	-20.7%	.	-12.2%	.	.
O=C(c1ccccc1)n1c(=S)nc2ccccn21
→ ?	-6.0%	-26.2%	-65.4%	-3.7%	-13.5%	-7.2%	-29.4%
O=C(Nc1nc2c(F)cc(F)cc2s1)C1CC1
→ .	-1.4%	6.3%	-0.4%	.	-30.7%	.	.
O=C(CN(Cc1ccco1)C(=O)c1ccc(F)cc1)Nc1ccccc1Br
→ -3.5%	-4.3%	12.1%	-22.7%	.	.	.	?
CCCC(=O)N(CCN(Cc1ccccc1)C(=O)CCC)Cc1ccccc1
→ ?	2.7%	-10.4%	-26.0%	2.2%	-27.2%	17.6%	-19.5%
CCn1c(=O)cc(SCC(=O)NCc2ccc3c(c2)OCO3)c2ccccc21
→ -1.2%	3.1%	-10.5%	4.3%	0.2%	-8.4%	0.8%	?
COC(=O)[C@H](Cc1ccccc1)NC(=O)N1CCN(c2ccccc2)CC1
→ 3.2%	-2.6%	2.6%	3.7%	.	-1.7%	.	-12.6%
Cc1ccsc1/C=C(\C#N)C(=O)NCc1cccnc1
→ ?	5.0%	-6.2%	19.5%	-4.1%	0.1%	6.6%	3.7%
CCC(Sc1ncnc2sc3c(c12)CCCC3)C(=O)OC(C)C (centres undefined)
→ 8.3%[46.1 µM]	.	.	-13.5%	-5.5%	.	-5.9%	-2.7%[46.1 µM]
Cn1cc(C(=O)N2CCN(c3ccccc3)CC2)c(=O)c2cc(S(=O)(=O)N3CCCC3)ccc21
→ 20.4%&20.4%[46.1 µM]	-12.4%	1.1%	5.4%&-1.3%	-4.9%	-2.7%	24.6%	2.0%[46.1 µM]
Cc1ccc(S(=O)(=O)N2CCN(C(=O)c3cc4c(C)nn(-c5ccccc5C)c4s3)CC2)cc1
→ 17.8µM*	3.9%	-3.7%	-30.6%	-5.3%	?	?	?
CCc1nn(CC(=O)N2CCN(c3ccc(F)cc3)CC2)c(=O)c2cc3occc3n12
→ -19.0%[46.1 µM]	-2.0%	0.4%	-20.4%	.	20.5%	.	6.2%[46.1 µM]
N#Cc1ccc(-c2ccc(OCC(O)CN3CCOCC3)cc2)cc1 (centres undefined)
→ 19.1%	-0.5%	-4.8%	-13.6%	.	1.7%	.	0.8%
CCOC(=O)C1C(=O)OC(C)(C)C1C(C)C(=O)c1ccc(C)cc1 (centres undefined)
→ -14.4%	-1.4%	5.9%	-15.0%	5.9%	-2.0%	-2.3%	17.3%
Cc1ccc(C(=O)N(c2ccccn2)C(C)c2ccco2)cc1C (centres undefined)
→ 1.6%	1.7%	9.2%	63.9%[activator]	-2.2%	-3.2%	-2.7%	-1.8%
CCOC(=O)Cc1ccc(NC(=O)N2CCc3c(sc4c3CCCC4)C2c2ccc(F)cc2)cc1 (centres undefined)
→ .	.	.	-7.9%	-0.8%	.	?	-0.3%[46.1 µM]
O=C1CN(C(=O)CN2CCOCC2)C(c2ccccc2)c2cc(Br)ccc2N1 (centres undefined)
→ .	0.3%	11.6%	-12.9%	-0.5%	-2.7%	-18.5%	.
COc1ccc(N(C(=O)C2CCCCC2)S(=O)(=O)c2cccc3cccnc23)cc1
→ ?	0.1%	6.2%	-8.0%	.	7.3%	.	?
O=C(C1=C[C@H](C2CCCCC2)C[C@H](OCCCCO)O1)N1CCN(Cc2ccccc2)CC1
→ .	-0.5%	1.6%	-16.4%	.	-8.2%	.	.
Cc1ccc(CNC(=O)C(C)OC(=O)c2cccs2)cc1 (centres undefined)
→ ?	4.8%	-15.8%	-15.9%	2.9%	-8.8%	3.5%	2.4%
CC(=O)N1CCCc2cc(S(=O)(=O)NCc3cccc(C)c3)ccc21
→ .	.	.	21.4%	1.4%	.	6.0%	-0.9%[46.1 µM]
CCCN1CC(C)C(OC(C)=O)(c2ccccc2)CC1C (centres undefined)
→ ?	1.5%	3.2%	5.0%	-1.8%	5.1%	1.6%	-10.0%
Cc1ccc(NC2=Nc3ccccc3N3C2=Nc2c(c(C)nn2-c2ccccc2)C3c2ccc(O)c(O)c2)cc1 (centres undefined)
→ ?	-3.6%	-4.4%	0.0%	-1.0%	?	?	?
O=C(COC(=O)CNC(=O)c1cccs1)Nc1ccc(C(F)(F)F)cc1[N+](=O)[O-]
→ -1.1%[46.1 µM]	0.8%	1.5%	-9.4%	.	.	.	6.0%
Cc1ccc(NC(=O)c2ccc([N+](=O)[O-])s2)cc1S(=O)(=O)N1CCOCC1
→ ?	2.0%	8.1%	?	.	.	.	?
CCS(=O)(=O)N1CCN(c2cnn(-c3ccccc3)c(=O)c2Cl)CC1
→ 20.4%[46.1 µM]	0.8%	4.3%	28.2%	.	3.9%	.	13.0%
CCCCCCCCCCCCCCCCn1cc[n+](C)c1
→ ?	-1.5%&-20.3%	14.1µM*	31.6µM*	.	-90.3%	.	-27.6%
Cc1ccc(C)c(OCCC(=O)NCCc2ccc(S(N)(=O)=O)cc2)c1
→ ?	0.4%	10.1%	-17.6%	.	5.9%	.	1.4%
Cc1ccc(-n2c3nc(=O)n(C)c(=O)c-3cc3c(Cl)cccc32)c(C)c1
→ ?	.	.	-12.3%	-0.8%	.	-5.8%	-0.3%[46.1 µM]
CCN1C(=O)/C(=C/c2ccc(N(CC)CC)cc2OC)C(=O)NC1=S
→ .	0.7%	3.1%	35.5µM*	.	-2.4%	.	.
O=C(Nc1nc(-c2ccccn2)cs1)c1cc(Cl)ccc1[N+](=O)[O-]
→ 2.82µM*	-4.6%	-28.4%	-24.5%	.	.	.	4.47µM*
CCOC(=O)c1c(C)nc2sc(C(=O)Nc3ccc(OC)cc3)c(N)c2c1-c1ccc(OC)cc1
→ ?	-3.7%	-3.2%	-12.8%	-0.5%	5.2%	19.5%	?
O=C(Nc1ccc(Cl)cc1N1CCOCC1)C1CC1
→ .	4.4%	6.4%	-0.8%	.	2.1%	.	.
CSc1nc(N)c2c(n1)N(C)C=NS2(=O)=O
→ -2.9%[46.1 µM]	.	11.3%	13.1%	.	.	.	-13.0%[46.1 µM]
COc1ccc2nc(NC(=O)CSc3nnc(C)n3N)sc2c1
→ .	0.0%	1.9%	33.1%[activator]	.	1.0%	.	.
O=C(N/N=C/c1ccncc1)NC1CCCCC1
→ .	1.1%	11.6%	22.5%	.	0.1%	.	.
CCCCn1c(N)c(N(CC(C)C)C(=O)COC(=O)C2(c3ccccc3)CC2)c(=O)[nH]c1=O
→ -19.9%	7.5%	-29.5%	-21.7%	.	.	.	5.4%
Cc1ccc(C)c(Cc2c(C)nc3c(C(=O)N4CCOCC4)cnn3c2C)c1
→ ?	1.9%	3.8%	-25.7%	-6.5%	-7.1%	8.1%	-10.4%
O=C(CCc1ccccc1F)N1CCN(c2ccc(C(F)(F)F)cn2)CC1
→ 7.9%[46.1 µM]	-5.3%	-9.6%	-7.7%	.	-8.9%	.	-24.0%[46.1 µM]
CCC(C(=O)Nc1cc(F)ccc1F)n1nc(C)c2c(C)n(-c3ccc(C)cc3)nc2c1=O (centres undefined)
→ .	0.6%	1.0%	?	-4.8%	1.6%	-13.8%	-6.7%[46.1 µM]
COC(=O)c1ccccc1NC(=O)C(C)c1ccc([N+](=O)[O-])cc1 (centres undefined)
→ -13.3%	0.0%	13.0%	?	.	.	.	-4.5%
